pPAFAH FP inh – pPAFAH enzyme inhibitors, primary screen, biochemical, fluorescence polarization, human; AID 463082, 2010; recombinant pPAFAH, FP-rhodamine probe fluorescence polarization; inhibition, % at 3.39 µM; 330,000 compounds, 1.5% hits; Platelet-activating factor acetylhydrolase (Homo sapiens), Q13093;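 active = inhibition above the mean inhibition across the screen plus 3 SD, cut at about 25% in these data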;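 also: inhibitors block binding of the rhodamine activity-based probe so polarization drops; 0% = enzyme with DMSO and 100% = wells lacking pPAFAH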
Target sequence (Q13093 whole entry, looked up): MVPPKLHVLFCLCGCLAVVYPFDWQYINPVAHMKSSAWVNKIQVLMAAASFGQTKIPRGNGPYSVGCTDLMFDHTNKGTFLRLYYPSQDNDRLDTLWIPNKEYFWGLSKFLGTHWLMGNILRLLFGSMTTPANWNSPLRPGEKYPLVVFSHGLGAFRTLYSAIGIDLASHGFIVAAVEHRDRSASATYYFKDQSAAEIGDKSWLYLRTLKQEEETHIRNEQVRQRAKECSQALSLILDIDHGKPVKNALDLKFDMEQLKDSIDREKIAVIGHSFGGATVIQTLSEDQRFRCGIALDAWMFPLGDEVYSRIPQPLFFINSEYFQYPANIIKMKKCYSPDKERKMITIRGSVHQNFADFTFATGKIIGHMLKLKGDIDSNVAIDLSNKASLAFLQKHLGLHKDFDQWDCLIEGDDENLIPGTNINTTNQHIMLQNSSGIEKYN
PAFAH1B3 inh – PAFAH1B3 enzyme inhibitors, primary screen, biochemical, fluorescence polarization, human | inhibition, % at 3.39 µM | recombinant PAFAH1B3, FP-rhodamine probe | Platelet-activating factor acetylhydrolase IB subunit alpha1 (Homo sapiens), Q15102 | 340,000 compounds, 0.28% hits | AID 492972, 2010;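 active = inhibition above the screen-wide average of all tested compounds plus 3 SD, cut at about 25% in these data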;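 also: 0% = enzyme with DMSO only and 100% = wells lacking PAFAH1B3 protein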
Target sequence (Q15102 whole entry, looked up): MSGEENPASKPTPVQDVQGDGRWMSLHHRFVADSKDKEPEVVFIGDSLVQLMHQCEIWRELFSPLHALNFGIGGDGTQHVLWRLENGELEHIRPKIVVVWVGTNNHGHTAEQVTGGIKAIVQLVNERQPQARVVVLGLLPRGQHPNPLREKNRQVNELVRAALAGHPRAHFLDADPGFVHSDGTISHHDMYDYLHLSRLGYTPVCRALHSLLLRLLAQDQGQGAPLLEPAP
PAD4 FP inh – human PAD4 inhibitors, primary screen, biochemical, fluorescence polarization, 1536-well format; recombinant PAD4, RCA probe fluorescence polarization; inhibition, % at 6.36 µM; 330,000 compounds, 0.41% hits; AID 485272, 2010;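 active = percent inhibition above a cutoff equal to the mean of all tested compounds plus 3 SD, cut at about 15% in these data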;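 also: 0% = PAD4 with RCA probe and DMSO and 100% = probe without PAD4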
PME-1 primary – PME-1 inhibitors via competitive probe labeling, primary screen, biochemical, fluorescence polarization, FP-Rh probe, HTS; recombinant PME-1; inhibition, % at 5.9 µM; 320,000 compounds, 0.53% hits; Protein phosphatase methylesterase 1 (Homo sapiens), Q9Y570;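 active = inhibition above the campaign mean of all compounds plus 3 SD, cut at about 26% in these data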;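 also: competitive labeling of PME-1 active site by serine hydrolase directed probe; 0% = PME-1 with DMSO and 100% = wells lacking PME-1 enzyme; inhibitors block probe labeling so polarization falls and inhibition rises; many of its hits are not listed in these tables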
LYPLA1 counter – LYPLA1 inhibitors, primary screen, counter-screen for PME1 inhibitor project, biochemical, fluorescence polarization, FP-Rh probe ABPP | Acyl-protein thioesterase 1 (Homo sapiens), O75608 | recombinant LYPLA1 | inhibition, % at 5.9 µM | 320,000 compounds, 0.16% hits | AID 2174, 2009;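 active = inhibition above the mean of all tested compounds plus 3 SD, set per campaign, cut at about 14% in these data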;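 also: inhibitors block serine hydrolase probe labeling of LYPLA1 so polarization falls; 0% = enzyme with DMSO and 100% = wells lacking LYPLA1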
PAFAH2 inh – PAFAH2 enzyme inhibitors, primary screen, biochemical, fluorescence polarization, human; 340,000 compounds, 0.99% hits; Platelet-activating factor acetylhydrolase 2, cytoplasmic (Homo sapiens), Q99487; recombinant PAFAH2, FP-rhodamine activity probe; inhibition, % at 3.39 µM; AID 492956, 2010;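 active = inhibition above the mean over all tested compounds plus 3 SD, cut at about 30% in these data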;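 also: inhibitors block probe labeling of enzyme so polarization drops; 0% = enzyme with DMSO and 100% = wells lacking PAFAH2 protein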
PAFAH1B2 FP inh – PAFAH1B2 enzyme inhibitors, primary screen, biochemical, fluorescence polarization, human; Platelet-activating factor acetylhydrolase IB subunit alpha2 (Homo sapiens), P68402; recombinant PAFAH1B2, FP-rhodamine activity probe; inhibition, % at 3.39 µM; 340,000 compounds, 1.2% hits;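 active = inhibition above the mean of all tested compounds plus 3 SD, cut at about 24% in these data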;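 also: 0% = enzyme with DMSO and 100% = wells lacking PAFAH1B2; many of its hits are not listed in these tables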
Target sequence (P68402 whole entry, looked up): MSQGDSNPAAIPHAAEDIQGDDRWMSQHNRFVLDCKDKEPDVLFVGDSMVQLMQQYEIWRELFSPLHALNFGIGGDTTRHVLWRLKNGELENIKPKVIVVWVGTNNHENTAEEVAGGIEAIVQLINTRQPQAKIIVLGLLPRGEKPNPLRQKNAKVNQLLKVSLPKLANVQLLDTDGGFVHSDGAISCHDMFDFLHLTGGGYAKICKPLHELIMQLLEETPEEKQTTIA
LYPLA2 inh – LYPLA2 inhibitors, primary screen, counter-screen for PME1 inhibitor project, biochemical, fluorescence polarization, FP-Rh probe ABPP; Acyl-protein thioesterase 2 (Homo sapiens), O95372; recombinant LYPLA2; inhibition, % at 5.9 µM; 320,000 compounds, 0.38% hits;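 active = inhibition above the screen-wide mean plus 3 SD, limit set per campaign, cut at about 26% in these data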;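 also: 0% = LYPLA2 with DMSO and 100% = wells lacking LYPLA2 enzyme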
Active calls of the source: *; . = not tested or not shown.

Each structure is followed by: pPAFAH FP inh, PAFAH1B3 inh, PAD4 FP inh, PME-1 primary, LYPLA1 counter, PAFAH2 inh, PAFAH1B2 FP inh, LYPLA2 inh
- COc1ccccc1Nc1nc(N)nc(CCl)n1
 : 1, 9, 3, 0, -1, 5, -2, 3
- O=C(CCCl)N1CCN(c2nc(-c3ccccc3)cs2)CC1
 : 7, 7, 3, 2, 3, -7, -1, 4
- COc1cccc(C(=O)CSc2nnc(-c3cccs3)o2)c1
 : 1, 7, 2, -9, -4, 8, 2, -1
- COC(=O)Cn1c(=O)c(C(=O)CCl)c(N)n(Cc2ccccc2)c1=O
 : -6, 5, 0, 4, 5, 0, 5, 9
- Cc1cc(C(=O)CCl)c(C)n1Cc1ccco1
 : 3, 1, 5, -3, -1, 4, 0, -4
- Cn1c(/N=C/c2c(O)ccc3ccccc23)nc2ccccc21
 : 23, 12, -1, 7, 1, 2, 8, 2
- O=c1[nH]c(CCl)nc2cc(-c3ccc(Cl)cc3)sc12
 : 2, 5, 3, -17, -8, -8, 43*, 0
- COc1ccc(/C=C(\C#N)C(=O)OCC(=O)NCc2ccc(Cl)cc2)cc1
 : 2, ., -4, -3, 1, ., ., -3
- Fc1ccccc1/C=N/Nc1ccc(Cl)nn1
 : 5, 6, 0, 6, -3, -1, 5, -7
- COC(=O)C(Cc1ccccc1)NC(=O)CSc1nc(N)cc(=O)[nH]1 (stereo unspecified)
 : -2, 3, -3, -1, -2, 0, -2, -3
- Cc1cc(C)nc(N(C#N)CN2C(=O)c3ccccc3C2=O)n1
 : 1, 1, 1, -3, -3, 6, 0, 0
- Cc1nc2ccccc2c(=O)n1NC(=O)C1CCC(C(C)(C)C)CC1 (stereo unspecified)
 : -4, 2, 0, -6, -2, -1, 4, -3
- Cc1nc(SCC(=O)Nc2ccccn2)n[nH]1
 : 1, 5, -2, -1, -3, 8, 0, -4
- O=c1c2ccccc2nc(-c2cccc(Cl)c2)n1O
 : 5, 13, 2, 5, 0, 0, 3, 7
- Cc1ccc2occ(C(=O)c3ccco3)c(=O)c2c1
 : 3, -4, 1, -1, 1, -3, 2, 2
- Cc1csc(NC(=O)CSc2ccc(-c3ccc(F)cc3)nn2)n1
 : -3, 1, -2, 6, -4, 1, 1, -3
- Cn1c2ccccc2c2cc(/C=C(\NC(=O)c3ccccc3)C(=O)NCC(=O)O)ccc21
 : 25*, 6, -5, -3, 3, -3, 10, 4
- Cc1nc(Cl)sc1C(=O)Nc1ccc(Cl)cc1
 : 4, 7, -1, -2, -1, 5, -1, 3
- CC#CC(=O)N1CCCC(C(=O)c2ccc(SC)cc2)C1 (stereo unspecified)
 : 8, 8, 4, 4, -1, 4, 1, 2
- COC(=O)c1c(NC(=O)C(Cl)Cl)sc2c1C(C(=O)OC)CC2 (stereo unspecified)
 : 1, -1, 2, -8, 1, -2, 0, 1
- N#CC1=C(N)SC(N)=C(C#N)C1C1C=CCCC1 (stereo unspecified)
 : 6, 10, 10, -1, 0, 2, 10, 0
- CCc1ccc(C(CNC(=O)c2ccc3c(=O)n(-c4ccccc4F)c(=S)[nH]c3c2)N(C)C)cc1 (stereo unspecified)
 : -1, 16, -2, -9, -1, -7, -1, -5
- COc1ccc(C(C(=O)NC2CCCCC2)N(C(=O)CCl)c2ccc(OC)cc2)cc1 (stereo unspecified)
 : 7, 4, 1, -2, 3, 7, 1, -2
- CCSc1nnc(NC(=O)CSc2nc3c(c(=O)n2CCOC)SC(C)C3)s1 (stereo unspecified)
 : -5, 2, -1, -4, -1, 4, -1, 1
- CC(C)(C)c1ccc(OCCC(=O)OCC(=O)NC(=O)NC2CCCC2)cc1
 : 22, 2, 4, -5, -3, 1, 2, 3
- CC(=O)c1cc(CN2CCC(n3nccc3NC(=O)c3ccccc3)CC2)cs1
 : 2, 5, -3, 1, 1, 5, 5, 1
- O=C(CN1CCN(S(=O)(=O)c2cc(Cl)ccc2Cl)CC1)Nc1ccc2c(c1)OCCO2
 : -5, -1, -1, 4, -2, 1, 0, 3
- COc1ccc(OCc2cc(C(=O)NC3CCOC(C)(C)C3)no2)c2ccccc12 (stereo unspecified)
 : 23, 2, 5, 7, 3, 10, 2, -5
- Cc1cc2c(cc1S(=O)(=O)NCCc1ccccc1)NC(=O)CO2
 : 6, 8, 5, 9, -1, 7, 29*, 6
- CCc1cc(C=C(Cl)Cl)oc(=O)c1C
 : 2, 22, -6, -1, -1, -1, 0, -1
- CCCCCCC1CC(CSC(=N)N)OC1=O (stereo unspecified)
 : 7, 8, -4, 3, 1, 6, 3, 1
- O=C(NNS(=O)(=O)c1ccc(CCCl)cc1)C(O)(c1ccccc1)c1ccccc1
 : -3, 11, 0, 1, -1, -4, 9, -10
- O=C(CSCc1ccc(Br)cc1)N1CCCC1
 : 6, 7, 3, -2, 0, 8, 29*, 3
- CCCC(C)C(=O)OCC(=O)Nc1ccc(Br)cc1 (stereo unspecified)
 : 4, ., 2, 2, -5, ., ., -9
- Cc1cc2[nH]c(=O)c(=O)[nH]c2cc1S(=O)(=O)Nc1cccc(Cl)c1C
 : 5, 4, -6, 4, 1, 3, 7, 6
- COc1cnc(SCc2ccc(Cl)c(Cl)c2)nc1Cl
 : -1, 7, -1, -2, -1, -2, 4, 10
- CC(=O)Oc1ccccc1N(C(C)=O)S(=O)(=O)c1ccc(C)cc1
 : 4, 4, -4, 7, 0, -4, 7, -3
- CCOc1ccc(NS(=O)(=O)c2cc(OCC(N)=O)c(C)cc2Cl)cc1
 : 7, 7, -4, 3, -6, -6, 1, 2
- CCOC(=O)C(CSCc1ccccc1)NC(=O)OC(C)(C)C (stereo unspecified)
 : 7, 7, 0, 2, 2, 2, 4, 1
- CCc1nc(SCC(=O)c2cc(C)ccc2C)n[nH]1
 : 2, 5, -3, -9, 2, 1, -1, -1
- CCOC(=O)N1CCN(C(=O)CCSCCc2ccncc2)CC1
 : 3, 11, -1, -1, 2, 6, 5, 9
- O=c1[nH]c(C2CCN(S(=O)(=O)c3ccccc3)CC2)nc2c1nnn2Cc1cccc(Cl)c1
 : -2, 6, -13, 19, -6, -2, 2, -3
- CC(=O)N(C)Cc1ccc(C(=O)CCl)cc1
 : 1, 8, -5, -2, -1, 4, -4, -5
- CC(Cn1cncn1)NC(=O)c1cc(COc2cccc(C(F)(F)F)c2)on1 (stereo unspecified)
 : 6, 9, -1, 6, 3, -4, 3, 7
- CC(Cl)C(=O)NC(=O)NC12CC3CC(CC(C3)C1)C2 (stereo unspecified)
 : 3, 5, -1, -2, 8, 10, 9, 10
- O=C(c1ccccc1)n1c(=O)c(F)cn(COCCBr)c1=O
 : -3, 13, -1, -2, -6, 10, 6, -4
- CCc1nnc(NC(=O)CSc2ccc(-c3ccc(F)cc3)nn2)s1
 : 5, ., 3, 0, -3, ., ., 1
- O=C(CN1C(=O)CCC1=O)NCC12CC3CC(CC(C3)C1)C2
 : 3, -3, 3, 6, 0, 13, 15, 2
- CCSc1nnc(NC(=O)CSc2nnc(C)c(=O)n2N)s1
 : -6, 12, -13, -5, -6, 1, 2, -8
- Cc1cc(C)cc(NC(=O)CSc2nc3c(c(=O)n2C)SC(C)C3)c1 (stereo unspecified)
 : 4, 2, -2, 0, 6, -4, -1, 12
- CN(C)c1nc(Cl)nc(NCCOc2ccccc2)n1
 : 2, 5, 4, -1, -1, 3, 3, 8
- Cc1ccc(Nc2nc(N)nc(CCl)n2)c(C)c1
 : -2, 3, 5, -1, 1, 4, 2, -2
- Cc1cc2[nH]c(=O)c(=O)[nH]c2cc1S(=O)(=O)Nc1cccc(C)c1C
 : 5, 2, -4, -1, 6, -1, 4, 3
- O=C(CCl)NC(Cc1ccccc1)c1ccccc1 (stereo unspecified)
 : -2, 4, -3, 5, 1, 8, 8, -5
- COc1ccccc1OCC(=O)Nc1cccc(S(=O)(=O)NC2=NCCCCC2)c1
 : 3, 4, -3, 1, 0, -2, -2, -2
- CC1(C)CC(CCNC(=O)CCl)(c2ccccc2)CCO1 (stereo unspecified)
 : -4, 7, -1, 7, 4, 1, 4, 5
- CCOC(=O)N1CCN(C(=O)CSc2ccccc2)CC1
 : 1, 11, -1, 5, 1, 6, 5, 7
- Cc1ccc(Nc2nc(N)nc(CSc3nnc(-c4ccncc4)o3)n2)cc1
 : -1, 4, -1, 2, -1, -20, -1, 2
- COCc1cc(C)nc(SCC(=O)Nc2ccc(C)c(C)c2)c1C#N
 : -1, 5, 5, 2, 9, -3, 1, 9
- O=c1cc(CCl)[nH]c2nc3ccccc3n12
 : 1, 21, -2, 2, 0, 7, 4, 0
- O=C1OC(Nc2ccc3ncccc3c2)c2ccccc21 (stereo unspecified)
 : -1, 4, -14, -1, 0, 3, -4, 0

Looked up by structure from the entries so far:
Each structure is followed by: pPAFAH FP inh, PAFAH1B3 inh, PAD4 FP inh, PME-1 primary, LYPLA1 counter, PAFAH2 inh, PAFAH1B2 FP inh, LYPLA2 inh
- Cc1cc2[nH]c(=O)c(=O)[nH]c2cc1S(=O)(=O)Nc1cccc(Cl)c1C
 : 5, 4, -6, 4, 1, 3, 7, 6
- CN(C)c1nc(Cl)nc(NCCOc2ccccc2)n1
 : 2, 5, 4, -1, -1, 3, 3, 8
- Cc1cc2[nH]c(=O)c(=O)[nH]c2cc1S(=O)(=O)Nc1cccc(C)c1C
 : 5, 2, -4, -1, 6, -1, 4, 3
- Cc1ccc(Nc2nc(N)nc(CSc3nnc(-c4ccncc4)o3)n2)cc1
 : -1, 4, -1, 2, -1, -20, -1, 2
- CCOc1ccc(NS(=O)(=O)c2cc(OCC(N)=O)c(C)cc2Cl)cc1
 : 7, 7, -4, 3, -6, -6, 1, 2
- COc1ccc(OCc2cc(C(=O)NC3CCOC(C)(C)C3)no2)c2ccccc12 (stereo unspecified)
 : 23, 2, 5, 7, 3, 10, 2, -5

Only part of the results is shown; count on the stated rates, not on these rows.
